Source: PubChem BioAssay
CBX7 AlphaScr: CBX7 inhibition, primary AlphaScreen. O95931. AlphaScreen His6-CBX7 / biotin-H3K27me3 peptide binding; active compounds read low. normalised signal (fraction of DMSO) (concentration not given with the values). 66,000 tested, 1.1% active; in the data active = normalised signal below about 0.5;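 also: 100 nL library stock added to about 20 µL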
Target sequence (O95931 whole entry, looked up): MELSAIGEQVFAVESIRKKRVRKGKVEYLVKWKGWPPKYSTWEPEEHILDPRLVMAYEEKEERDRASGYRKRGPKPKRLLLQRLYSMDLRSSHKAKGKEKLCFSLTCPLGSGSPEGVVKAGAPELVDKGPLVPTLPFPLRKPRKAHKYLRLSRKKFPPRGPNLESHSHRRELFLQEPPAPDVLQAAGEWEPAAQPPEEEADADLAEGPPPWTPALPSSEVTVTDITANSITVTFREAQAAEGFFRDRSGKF
CBX7 AlphaScr z-score: also measured in CBX7 AlphaScr; calls as there; z-score; measured here: z-score of CBX7 signal; some inactives read as strong as hits; reference of the scale not given here;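 same signal on another scale; lower means less binding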
Active calls of the source: *. The list is partial (hit frequency here may not be typical).

Start of the data: the first 3 compounds as a preview:
SMILES | CBX7 AlphaScr | CBX7 AlphaScr z-score
COc1ccc(NC(=O)c2cc(-c3cccs3)on2)c(OC)c1 | 1 | 0.19
CCOC(=O)c1c[nH]c2cc(Br)ccc2c1=O | 0.85 | -2.4
CCCCNC(=O)C1CCCN(c2nc3ccc(OC)cc3s2)C1 (stereo not given) | 1.2 | 2

This part in full, repeating the preview:
SMILES | CBX7 AlphaScr | CBX7 AlphaScr z-score
COc1ccc(NC(=O)c2cc(-c3cccs3)on2)c(OC)c1 | 1 | 0.19
CCOC(=O)c1c[nH]c2cc(Br)ccc2c1=O | 0.85 | -2.4
CCCCNC(=O)C1CCCN(c2nc3ccc(OC)cc3s2)C1 (stereo not given) | 1.2 | 2
Cc1ccc(NC(=O)c2cc3sccc3n2Cc2ccc(Cl)cc2)cc1 | 1 | 0.31
COc1ccc(C2C(C(=O)N3CCCC3)CCC(=O)N2c2ccc3c(c2)OCO3)cc1 (stereo not given) | 1.1 | 2.5
Cc1noc(/C=C/c2cccs2)c1S(=O)(=O)N1CCCC(C(=O)NC2CCCC2)C1 (stereo not given) | 1 | 0.4
Cc1ccc(C)c(N2CCN(C(=O)CCC3=NS(=O)(=O)c4ccccc4N3)CC2)c1 | 0.96 | -0.95
Cc1ccc(-n2c3c(cc(C(=O)Nc4ccc(N(C)C)cc4)c2=O)C(=O)CC(C)(C)C3)cc1 | 0.96 | -0.16
Cc1ccccc1CN1C(=O)CSc2ccc(C(=O)NC3CCCCC3C)cc21 (stereo not given) | 1.2 | 1.5
O=C(O)c1cc(-c2ccc3c(c2)OCO3)nc2cc3c(cc12)OCCO3 | 1.1 | 1.9
COc1ccc(CNC(=O)CCC(=O)Nc2ccc3nc(N4CCN(C)CC4)cc(C)c3c2)cc1 | 1.1 | 1.4
COc1ccc(NC(=O)CCc2c(C)nc3cc(-c4ccccc4)nn3c2C)cc1Cl | 1 | 0.46
COc1ccccc1NC(=O)C1CCCN1S(=O)(=O)c1cccc2cccnc12 (stereo not given) | 1 | 0.45
Cc1c(C(=O)NC2CC2)oc2ccc(S(=O)(=O)N3CCCCCC3)cc12 | 1.3 | 3
O=C(Nc1cccc(C(F)(F)F)c1)c1nn2c(C(F)(F)F)cc(-c3ccc(Cl)cc3)nc2c1Cl | 1.1 | 0.82
Cc1ccccc1Cc1c(C)nc2c(C(=O)NCc3ccc(Cl)cc3)cnn2c1C | 1 | 0.94
CC(C)(C)NCC(=O)Nc1c2c(nc3c1CCC3)CCCC2 | 1 | 0.068
CCCOc1ccc(C2C(=O)N(C3CCCCCC3)CC(=O)N2Cc2ccc(OC)cc2)cc1OC (stereo not given) | 0.98 | -0.095
CCOCCCNC(=O)c1c[nH]c2ccc(S(=O)(=O)Nc3ccc(OCC)cc3)cc2c1=O | 0.92 | -1.4
Cc1cc(Cl)ccc1OCC(=O)C(Cc1nc(-c2ccc(Cl)cc2)no1)C(C)C (stereo not given) | 1.2 | 4
O=C(Nc1ccc2snnc2c1)NC1CCCCCC1 | 1 | 1.4
COc1ccc(-c2nc3ncccn3c2Nc2ccccc2C)cc1 | 1.1 | 0.13
COc1ccccc1C(=O)Nc1ccc(-c2cn3ccccc3n2)cc1 | 0.94 | -1.7
Cc1nc2cc(-c3cccc(F)c3)nn2c(C)c1CCC(=O)N1CCN(c2ccc(F)cc2)CC1 | 0.99 | -0.21
Cc1ccccc1Nc1c(-c2ccccc2O)nc2sccn12 | 0.66 | -6.7
CCOC(=O)c1cc(-c2ccccc2)n(CCC(=O)NCCc2cccc(C)c2)c1C | 0.99 | -0.14
COc1ccc(CNC(=O)c2ccc3c(c2)N(Cc2cc(C)ccc2C)C(=O)CS3)cc1 | 1.1 | 2.5
Cc1ccc(NC(=O)Cn2cnc3sc(C(=O)O)c(C)c3c2=O)cc1Cl | 0.98 | -0.56
CCN1CCN(C(c2cccs2)C(C)NC(=O)c2cccc(F)c2)CC1 (stereo not given) | 1.2 | 1.6
CN(CCNC(=O)c1cc(=O)[nH]c2ccc(S(=O)(=O)N3CCCCCC3)cc12)Cc1ccccc1 | 0.98 | -0.63
CCOC(=O)c1c(NC(=O)COc2ccc(Cl)cc2)sc(C)c1C | 1.4 | 1.5
CCC1=Nc2cc(C(=O)NCC(OC)OC)ccc2Sc2ccc(Cl)cc21 | 0.88 | -5.7
COc1ccc(OC2C(=O)N(CCc3ccc(OC)c(OC)c3)C2c2cccc(Cl)c2Cl)cc1 (stereo not given) | 0.72 | -0.99
C=CCNc1oc(COc2ccc(F)cc2)nc1C#N | 0.98 | -0.68
CCCCn1c(CCCNC(=O)c2ccc(OC)c(OC)c2)nc2ccccc21 | 1.1 | 0.94
CCn1cc(C(=O)Nc2ccccc2F)c2cc(OC)c(OC)cc2c1=O | 1 | 0.52
O=C(NCCCn1ccnc1)c1cc(-c2ccc(O)cc2)on1 | 0.97 | -1.4
COc1ccc(-c2nc(CSCC(=O)NCCc3ccc(Cl)cc3)c(C)o2)cc1 | 0.98 | -0.59
CC(=O)N1CCc2cc(S(=O)(=O)NCCC(=O)NC3CCCCCC3)ccc21 | 1 | 0.7
Cc1ccc(NC(=O)C(C(C)C)N2C(=O)c3ccccc3C2=O)c(C)c1 (stereo not given) | 1 | 0.69
CC(C)CCNC(=O)CN1C(=O)CSc2ccc(S(=O)(=O)N(C)C3CCCCC3)cc21 | 0.98 | -0.048
CCOC(=O)C(C)Sc1nnc(Cc2cc(=O)[nH]c(=O)[nH]2)n1-c1ccccc1 (stereo not given) | 1.2 | 0.85
Cc1cc(C)cc(C(=O)N2CC(=O)Nc3ccc(F)cc3C2c2ccccc2)c1 (stereo not given) | 0.97 | -0.038
CN1C(=O)CSc2ccc(NC(=O)Nc3nccs3)cc21 | 0.95 | -1.1
O=C(NCCC1=CCCCC1)C1CCN(c2nc3cc(Cl)ccc3s2)CC1 | 1 | 1.5
Cc1ccc(-c2noc(CN(C(=O)CCCN3C(=O)c4ccccc4C3=O)C(C)C)n2)cc1 | 0.79 | -2.1
Cc1cc(N2CCN(C)CC2)nc2ccc(NC(=O)CCC(=O)Nc3ccc4c(c3)OCO4)cc12 | 1 | 1.5
O=C1CC(N2CCN(Cc3ccc(Cl)cc3)CC2)C(=O)N1c1ccc(F)cc1 (stereo not given) | 1 | 1.8
CCCN(C(=O)CCc1nc(-c2ccccc2F)no1)c1cccc(C)c1 | 0.97 | -0.56
Cc1ccc(CNC(=O)CN2CCN(Cc3ccc(Cl)cc3)C2=O)cc1 | 0.83 | -2.3
COc1ccccc1C(=O)Nc1ccc(Cl)c(-c2nc3ncccc3o2)c1 | 1.1 | 1.8
O=C(NC1CCCCC1)C1c2ccccc2C(=O)N1CCc1ccc(Cl)cc1 (stereo not given) | 1 | 0.24
Cc1ccc2cc(CCNC(=O)CC(C)(C)C)c(=O)[nH]c2c1 | 1 | 0.88
COc1ccc(OC2C(=O)N(Cc3ccc(F)cc3)C2c2ccc3c(c2)OCO3)cc1 (stereo not given) | 0.73 | -0.94
O=C(c1cnn(-c2ccccc2)c1-n1cccc1)N1CCN(Cc2ccccc2)CC1 | 1 | -0.19
Cc1ccc(NC(=O)c2cnc3ccccn3c2=O)cc1C | 1 | 0.85
Cc1ccc2c(C)nc(Nc3nc(-c4ccccc4)cc(=O)[nH]3)nc2c1 | 1 | 0.05
Cn1cc(CC(=O)NCc2ccc(F)cc2Cl)c2ccccc21 | 0.97 | -1.5
CCOC(=O)c1cnc2c(C)cc(Cl)cc2c1NCCCN1CCOCC1 | 1.3 | 3.5
O=C(CSc1nc(-c2ccccc2)cn1-c1ccc(Br)cc1)c1ccccc1 | 1.1 | 1.8

One compound at a time, from the list above. Values in the order: CBX7 AlphaScr	CBX7 AlphaScr z-score
Profile of COc1ccccc1C(=O)Nc1ccc(Cl)c(-c2nc3ncccc3o2)c1 : 1.1	1.8
Profile of Cc1ccc(NC(=O)c2cnc3ccccn3c2=O)cc1C : 1	0.85
Profile of CCOC(=O)C(C)Sc1nnc(Cc2cc(=O)[nH]c(=O)[nH]2)n1-c1ccccc1 (stereo not given) : 1.2	0.85
Profile of O=C(c1cnn(-c2ccccc2)c1-n1cccc1)N1CCN(Cc2ccccc2)CC1 : 1	-0.19
Profile of O=C1CC(N2CCN(Cc3ccc(Cl)cc3)CC2)C(=O)N1c1ccc(F)cc1 (stereo not given) : 1	1.8

Next part.
SMILES | CBX7 AlphaScr | CBX7 AlphaScr z-score
Cc1cc(NC(=O)Nc2ccc3c(c2)N(C)C(=O)CS3)ccc1Br | 1 | 2.5
CCc1cccc(NC(=O)C2CCCN(S(=O)(=O)c3cnc[nH]3)C2)c1 (stereo not given) | 1 | 1.7
Cc1ccccc1-c1nc(CS(=O)(=O)CC(=O)NCc2ccc3c(c2)OCO3)c(C)o1 | 0.81 | -0.66
CCC(=O)N1CCc2cc(S(=O)(=O)N3CCc4ccccc4C3)ccc21 | 1.1 | 0.71
Cc1ccc2nc(NC(=O)CSc3nccn3-c3ccc(Cl)cc3)sc2c1 | 1 | 0.008
N#Cc1nc(COc2ccccc2F)oc1NCCCn1ccnc1 | 0.86 | -6
Cc1onc(-c2c(Cl)cccc2Cl)c1C(=O)NC1CCN(Cc2ccccc2)CC1 | 0.99 | -0.074
O=C(NCCCN1CCOCC1)c1cc(-c2ccncc2)nc2ccccc12 | 1.1 | 0.65
Cc1ccc(Cl)cc1NC(=O)CC1Sc2ccccc2NC1=O (stereo not given) | 1 | 0.055
CCOC(=O)C1CCCN(c2c(N3CCN(c4cccc(C)c4C)CC3)c(=O)c2=O)C1 (stereo not given) | 0.97 | -1.2
COc1cc(C2C(=O)N(C3CCC(C)CC3)CC(=O)N2CCC2=CCCCC2)ccc1OC(C)C (stereo not given) | 1 | 0.52
CCOc1ccc(NC(=O)Nc2nc(-c3ccc(Oc4ccccc4)cc3)cs2)cc1 | 0.91 | -2.2
COCCCNC(=O)CSc1nc(-c2ccc(Cl)cc2)[nH]c1-c1ccc(C)cc1 | 0.98 | -0.31
CCOc1ccccc1NC(=O)CS(=O)(=O)c1nc(-c2ccc(C)cc2)cn1-c1ccccc1 | 0.75 | -2.5
CCc1ccccc1N(C)S(=O)(=O)c1ccc2[nH]cc(C(=O)NCCC3=CCCCC3)c(=O)c2c1 | 0.93 | -0.71
O=C(O)c1ccc(NCc2nc3ccccc3n2Cc2ccccc2)cc1 | 1 | 0.86
Clc1cccc(Nc2nc3nonc3nc2N2CCOCC2)c1 | 1 | 1.4
Cc1cc(C)n(CC(=O)NCc2n[nH]c(=O)c3ccccc23)n1 | 1 | 0.13
Cc1ccc(Cl)cc1NC(=O)CSCc1cnn(-c2ccccc2)c1-n1cccc1 | 1 | 0.46
Cc1ccc(-c2noc(CCC(=O)N3CCCCCC3)n2)cc1 | 1.1 | 2.3
Cc1ccc(-c2nn(CCC(=O)Nc3cccc(C)c3)c(=O)c3ccccc23)cc1 | 1 | -0.11
O=C1CN(S(=O)(=O)c2ccc3c(c2)CCN3C(=O)C2CC2)CC(=O)N1CCc1ccccc1 | 1 | 1.2
CC1CCC(NC(=O)CN2C(=O)CSc3ncccc32)CC1 (stereo not given) | 1 | 0.97
CCN(CC)CCCNC(=O)c1cc2c(-c3ccc(OC)c(OC)c3)nn(C)c2s1 | 1 | 1.3
O=C(NC1CCCC1)C1CCC(=O)N1Cc1ccccc1Cl (stereo not given) | 1 | -0.12
O=C(O)CCC(=O)N1CCc2cc(S(=O)(=O)NCc3ccccc3)ccc21 | 0.96 | -1.2
CCc1ccc(-c2nc(CN3CCC(C(=O)NC(C)CCc4ccccc4)CC3)c(C)o2)cc1 (stereo not given) | 0.84 | -2.5
COc1cccc(C(=O)Nc2c3c(nn2-c2ccc(F)cc2)CS(=O)(=O)C3)c1 | 0.99 | -0.09
CCc1ccc(NCC2C(Oc3ccc(Cl)cc3)C(=O)N2c2ccccc2C)cc1 (stereo not given) | 0.57 | -5.2
Cc1cc(C)cc(-n2ccnc2SCC(=O)Nc2ccc(F)cc2)c1 | 0.85 | -0.15
CC1CCCC(C)N1CCCNC(=O)c1ccc2c(c1)NC(=O)c1ccccc1S2 (stereo not given) | 1.2 | 1.2
COc1ccc(Nc2nc(-c3ccccc3)c3cc(Br)ccc3n2)cc1 | 0.72 | -5
CCOC(=O)c1sc2nc(C)nc(Nc3cccc(Cl)c3)c2c1C | 1.1 | 1.2
Cc1ccc(Cn2nnc3c(=O)n(CC(=O)Nc4ccc(C)c(Cl)c4)cnc32)cc1 | 0.83 | -2.9
CN(C)c1oc(COc2ccccc2F)nc1C#N | 0.93 | -2.1
COc1ccc(-c2cc3ccccc3n2CC(O)CN2CCOCC2)cc1 (stereo not given) | 1 | 0.25
O=C(CSc1nccn1-c1ccc(Cl)cc1)Nc1ccccc1F | 0.8 | -0.72
COc1ccc(-c2nc(C(=O)NCc3ccc(Cl)cc3)c(C)o2)cc1 | 1 | 0.032
Cc1cc2cc(CCNC(=O)CCCc3ccccc3)c(=O)[nH]c2cc1C | 0.86 | -1.8
CCc1ccc(-n2cnc3cc(C(=O)NCc4ccc(C)cc4)ccc32)cc1 | 0.66 | -5.8

Some of the entries so far, field by field:
CCC(=O)N1CCc2cc(S(=O)(=O)N3CCc4ccccc4C3)ccc21
  CBX7 AlphaScr: 1.1 | CBX7 AlphaScr z-score: 0.71

COc1cccc(C(=O)Nc2c3c(nn2-c2ccc(F)cc2)CS(=O)(=O)C3)c1
  CBX7 AlphaScr: 0.99 | CBX7 AlphaScr z-score: -0.09

O=C(c1cnn(-c2ccccc2)c1-n1cccc1)N1CCN(Cc2ccccc2)CC1
  CBX7 AlphaScr: 1 | CBX7 AlphaScr z-score: -0.19

Cc1ccc2c(C)nc(Nc3nc(-c4ccccc4)cc(=O)[nH]3)nc2c1
  CBX7 AlphaScr: 1 | CBX7 AlphaScr z-score: 0.05

The listing continues.
SMILES | CBX7 AlphaScr | CBX7 AlphaScr z-score
COc1ccc(OC)c(Nc2cc(C(=O)NCc3ccccc3)c3ccccc3n2)c1 | 1 | 0.46
CCc1nc(NCCN2CCOCC2)c(C#N)c2c1CCCC2 | 0.97 | -0.34
CCCC1=Nc2cc(C(=O)NCCCN3CC(C)CC(C)C3)ccc2Sc2ccccc21 (stereo not given) | 0.83 | -2.4
COc1ccc(Nc2cc(C)nc(-c3ccccc3)n2)cc1 | 0.79 | -0.37
